# Screening results from PubChem BioAssay.
# TsaE inh: displaces an ADP probe from E. coli YjeE (TsaE) | P0AF67 | purified YjeE, fluorescence polarisation of a bound ADP probe | Potency, µM | 71,000 tested, 0.05% active | AID 605; active = well fitted falling curve; inconclusive = weaker or top-dose-only fall, or a rising curve; inactive = flat or poorly fitted curve;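 note: top concentration of the series not given in the record; excess ADP was the control for the full effect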
#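 Fluorescence polarization of a BODIPY Texas Red–ADP probe (2 uM) bound to purified YjeE (10 uM) was read after 15 min room-temperature incubation with compounds. Loss of polarization marks inhibitors; ADP serves as titrated control.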
# Bst PK mod: pyruvate kinase (B. stearothermophilus) modulation. partly purified Bacillus stearothermophilus pyruvate kinase, luminescence ATP production; ribose 5-phosphate activator present at AC10. Potency, µM. 51,000 tested, 1.2% active. AID 361; in the data active means potency below about 11 µM; inconclusive means mostly about 12 µM to 25 µM; inactive means weaker than that;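 the screen sought inhibitors and activators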;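 note: potency is the fitted concentration of half-maximal effect; scaled between full activation by ribose 5 phosphate and full inhibition by luteolin; about four in five hits inhibit and the cells do not say which; series up to 57 µM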
# * = called active by the depositor; i = inactive; ? = inconclusive; . = not tested or not shown. Some of the compounds tested. The share of hits here may be higher or lower than overall.
compound | Bst PK mod | TsaE inh
COC(=O)c1sc(N)c(C(=O)OC)c1CSc1nnnn1C | >57 | i
O=C(Cc1ccccc1)N1CCC(C(=O)N2CCN(c3ccc(F)cc3)CC2)CC1 | . | i
Cn1c(=O)c2[nH]cnc2n(-c2ccccc2)c1=O | >57 | i
COc1ccc(-n2nnnc2SCC(=O)Nc2ccc3c(c2)OCCO3)c(OC)c1 | >57 | i
CC1(C)CC(=O)C=C(NCc2ccncc2)C1 | >25.6 | .
O=c1c(-c2cccs2)nc2cncnc2n1-c1ccccc1 | . | i
COC(=O)[C@@]1(Cc2ccccc2)[C@@H]2C(=CC(=O)[C@H]2CC(=O)C(=O)N(C)C)CN1C(=O)c1ccccc1 | . | i
COCCN(C(=O)CNC(=O)c1ccco1)C(C(=O)NC1CCCCC1)c1cccc(OC)c1 (centres undefined) | >57 | i
CCOC(=O)c1cc2ccc(OC)c(OC)c2c(=O)s1 | . | i
O=C(COc1ccc(Cl)cc1)NCc1nnc(SCC(=O)c2ccccc2)o1 | >57 | i
O=C(NCc1cccs1)Nc1ccc2c(c1)OCO2 | >57 | i
CCOC(=O)CC(=O)CSc1nc2c(sc(=S)n2-c2ccccc2)c(=O)[nH]1 | >57 | i
O=C(Nc1ccc2c(c1)OCO2)C1CCCN1C(=O)Nc1ccccc1F (centres undefined) | >57 | i
CCC(C)n1cnc2c(c1=O)c1nc3ccccc3nc1n2-c1ccc2c(c1)OCCO2 (centres undefined) | >57 | i
Cc1ccc(CS(=O)(=O)CCC(=O)NCCN2CCCC2)cc1 | >57 | i
COC(=O)c1cc2occc2n1CC(=O)N(C)C1CCCCC1 | >57 | i
Cn1c(=O)c2[nH]c(CCCc3ccc([N+](=O)[O-])cc3)nc2n(C)c1=O | . | i
Cc1cc(C2=CC(C)(c3cc(C)oc3C)Nc3nc(C(F)(F)F)nn32)c(C)o1 (centres undefined) | >57 | i
COc1cc(C2c3c(oc4ccc(C)cc4c3=O)C(=O)N2c2cc(C)ccn2)cc(OC)c1OC (centres undefined) | >57 | i
CCCOC(=O)/C(C(N)=NCc1ccccc1)=C(\O)OCCC | . | i
CCCN(CC1CC1)C(=O)Nc1ccccc1C | >57 | i
COC(=O)COc1cccc(NS(=O)(=O)c2ccc(NC(C)=O)cc2)c1 | >57 | i
COCCNC(=O)C1(C)C=CCN1C(C)=O (centres undefined) | . | i
CC12CCC(C(N)=O)(c3nc4ccccc4nc31)C2(C)C (centres undefined) | >57 | i
CCOC(=O)C1CCN(C(=O)CNC(=O)OC(C)(C)C)CC1 | >57 | i
O=C(Cn1cc2c(n1)CCCC2)Nc1ccccc1Br | . | i
CCOCCCNC(=O)Cc1c(C(=O)O)[nH]c2ccc(Cl)cc12 | . | i
COc1ccccc1NC(=O)CSc1nc(O)cc(=O)n1C | >57 | i
COc1cc(OC)cc(-c2cc3nc4c(c(N5CCN(c6ncccn6)CC5)n3n2)CCCC4)c1 | >57 | i
Cc1cc(C)c(S(=O)(=O)NCCC2CCCN2C)c(C)c1 (centres undefined) | >57 | i

# Later entries
compound | Bst PK mod | TsaE inh
COc1cccc2c1C(=O)c1c(O)c3c(c(O)c1C2=O)C[C@@](O)(C(=O)CO)C[C@H]3O[C@H]1C[C@@H](N)[C@H](O)[C@@H](C)O1.[W] | . | i
Cc1cccc(NC(=O)CC2NC3CCCCC3NC2=O)c1 (centres undefined) | >57 | i
COC(=O)c1ccc(Oc2nc(NC(C)C)nc(N(C)C)n2)cc1 | >57 | i
CN1CCN(S(=O)(=O)c2ccc(NC(=O)c3ccc(Br)o3)cc2)CC1 | >57 | i
COc1ccc(C(=O)N(CCN2CCOCC2)CC(=O)NC2CCCC2)cc1OC | >57 | i
O=C(O)c1ccc(C(=O)O)c2c(C(=O)O)ccc(C(=O)O)c12 | . | i
O=C(C1CCCN(S(=O)(=O)c2cccc3cccnc23)C1)N1CCN(c2ccccc2F)CC1 (centres undefined) | . | i
O=C(NCc1ccc2c(c1)OCO2)Oc1ccccc1 | . | i
O=C(CCCc1ccccn1)c1ccccc1 | . | i
CCC1(COC(NC(=O)c2cccnc2)(C(F)(F)F)C(F)(F)F)COC1 | >57 | i
Cc1c(C(=O)NCc2ccc3c(c2)OCO3)oc2ccc(S(=O)(=O)N3CCCCCC3)cc12 | >57 | i
CC1(C)CC(NS(=O)(=O)c2ccc(S(=O)(=O)N3CCOCC3)cc2)CCO1 (centres undefined) | >57 | i
c1ccc(OCc2nn3c(-c4cccnc4)nnc3s2)cc1 | >25.6 | .
ClCCl | . | i
N#Cc1nc(-c2ccco2)oc1NCCCn1ccnc1 | >57 | i
CN(Cc1ccco1)c1cc(-c2ccccc2C(F)(F)F)ncn1 | . | i
Cc1cc(C)c(NC(=O)C[C@H](CC(=O)O)c2cccc3ccccc23)c(C(=O)N2CCC3(CCCC3)CC2)c1 | . | i
NC(=O)C1CCN(Cc2nc(-c3ccccc3)no2)CC1 | >57 | i
C=CCn1c(SCC(=O)Nc2ccc3c(c2)OCO3)nnc1-c1ccccc1 | >57 | i
CCN(CC)C(=O)COC(=O)c1ccc(O)cc1 | . | i
CCCc1cc(N2CCCC2)n2nc(C)c(-c3ccccc3)c2n1 | >57 | i
Clc1ccccc1CSc1nnc(-c2ccccn2)n1Cc1ccco1 | >57 | i
CC(=O)NCCNc1ccnc(-c2ccccc2C(F)(F)F)n1 | . | i
CN1CCc2cc(NC(=O)Nc3cccnc3)ccc21 | . | i
COc1cccc(C2C=C(c3ccc(Br)s3)Nc3ncnn32)c1OC (centres undefined) | >57 | i
O=C1CC(N2CCC(c3nc4ccccc4s3)CC2)C(=O)N1 (centres undefined) | >57 | i
CCCn1nnc(NC(=O)c2cccc(OCC)c2)n1 | >57 | i
CCOC(=O)Cc1c(C)nc2cc(-c3ccc(C)cc3)[nH]n2c1=O | . | i
O=C(NCC1CCCO1)C1CCN(S(=O)(=O)c2cccc3cccnc23)CC1 (centres undefined) | . | i
O=C(O)c1n[nH]c2ccccc12 | >57 | i

# Compound profiles (already shown):
# c1ccc(OCc2nn3c(-c4cccnc4)nnc3s2)cc1 reads Bst PK mod = >25.6; TsaE inh = .
# O=C(CCCc1ccccn1)c1ccccc1 reads Bst PK mod = .; TsaE inh = i

# Additional entries.
compound | Bst PK mod | TsaE inh
COC(=O)c1ccc2c(=O)n(CCCN3CCOCC3)c(=S)[nH]c2c1 | >57 | i
CC(C)(C)Nc1nc(Oc2ccc(=O)n(-c3ccccc3)n2)nc(N2CCOCC2)n1 | >57 | i
O=C(Nc1ccccc1)N1CC2(CCN(C(=O)c3ccco3)CC2)C1 | . | i
COc1ccc(CN2CCC(=O)NC2=O)cc1 | >25.6 | .
O=c1oc2c3c4c(cc2s1)CCCN4CCC3 | . | i
O=C(CCCn1c(=O)c2ccccc2n(Cc2ccccc2)c1=O)NCc1ccco1 | >57 | i
Cn1c(=O)[nH]c(=O)c2c1nc(CN1CCN(c3cccc(Cl)c3)CC1)n2CCc1ccccc1 | >57 | i
CSc1cccc(NC(=O)C2CCN(S(=O)(=O)c3ccc(F)cc3)CC2)c1 | . | i
CCOC(=O)N1CCN(C(=O)Cn2ccc3ccccc3c2=O)CC1 | >57 | i
COc1ccc(Br)cc1CNc1ccc(O)cc1 | >57 | i
Cc1coc2cc3oc(=O)c4c(c3cc12)CCCC4 | . | i
COc1ccc(CCC2(C)NC(=O)NC2=O)cc1 (centres undefined) | >57 | i
CC(C)CNC(=O)CN(C1CCCCC1)S(=O)(=O)c1ccccc1 | . | i
O=C1Nc2ccc(Br)cc2C1(O)Cc1ccncc1 (centres undefined) | >57 | i
Cc1cc(C(=O)Nc2sc3c(c2C#N)CCC3)no1 | . | i
CC(C)(C)c1ccc(OCc2nc(-c3ccccn3)no2)c(Br)c1 | . | i
COC(=O)C(NC(=O)c1ccccc1)(Nc1nccs1)C(F)(F)F (centres undefined) | >25.6 | .
CCCn1c(C)nc2c(c1=O)c1nc3ccccc3nc1n2CCC1=CCCCC1 | >57 | i
COC(=O)C1(S(=O)(=O)c2cccc3nsnc23)CC1 | >57 | i
CC(C)(C)c1ccc(O)c(CN(Cc2c(O)ccc3ccccc23)C2CCCCC2)c1 | . | i
COCCn1c(=O)c(-c2ccc(Cl)cc2)nc2cncnc21 | . | i
CC(C)(C)NC(=O)c1ccc2nccnc2c1 | i | i
CCCCCC(=O)N1CCN(c2ccc(C(C)=O)cc2F)CC1 | . | i
CCOc1ccc2nc(NC(=O)CSc3nc4ccccc4c(=O)n3Cc3ccco3)sc2c1 | >57 | i
COCCNc1oc(-c2ccc(Cl)cc2)nc1C#N | ? | .
FC(F)(F)c1cccc(Nc2ncnc3ccccc23)c1 | >57 | i
CCC1(CC)NC(=O)N(CC(=O)OCn2nnc3ccccc3c2=O)C1=O | >57 | i
COc1cccc(Cn2c(=O)c(-c3cccc(C#N)c3)nc3cnc(Nc4ccccc4)nc32)c1 | . | i
CCNc1ncc2nc(C)c(=O)n(CCc3ccccc3)c2n1 | . | i
O=S(=O)(c1ccc(N2CCN(c3ccc(F)cc3)CC2)cc1)N1CCCC1 | >57 | i

# (continued)
compound | Bst PK mod | TsaE inh
COc1cccc(C(=O)NCC2CCN(c3ccc(S(=O)(=O)N4CCOCC4)cc3)CC2)c1 | >57 | i
CCn1c(SCC(=O)Nc2ccccc2)nnc1-c1ccc(S(=O)(=O)N2CCOCC2)cc1 | >57 | i
CC1(C)CC(=O)C(C=NCCN2CCN(C(=O)c3ccccc3)CC2)=C(O)C1 | . | i
Cc1c(C)n(Cc2ccccc2)c2ncnc(N)c12 | >57 | i
O=C(C1=COCCO1)N1CCN(S(=O)(=O)c2cccc(Cl)c2Cl)CC1 | i | i
O=C1CC(C(=O)NCc2ccccc2)N=C(N2CCCCC2)N1 (centres undefined) | >57 | i
C=CCSc1nc(C)c(CC(=O)OCCCC)c(=O)[nH]1 | >57 | i
CCOc1ccc(C(C)=O)cc1CSc1nnc(-c2cccs2)n1CC1CCCO1 (centres undefined) | >57 | i
O=C(Cc1cccs1)NCc1ccc(F)cc1 | >57 | i
O=C(COC(=O)c1cncc(Br)c1)NCC1CCCO1 (centres undefined) | >57 | i
CCOC(=O)c1cnc2ccccc2c1NCCO | >57 | i
CCOC(=O)Oc1c(OC)cc(C(=O)O[C@H]2C[C@H]3CN4CCc5c([nH]c6cc(OC)ccc56)[C@@H]4C[C@H]3[C@@H](C(=O)OC)[C@@H]2OC)cc1OC | . | i
Cc1ccc(-c2nc(CS(=O)(=O)CC(=O)N3CCc4ccccc4C3)c(C)o2)cc1 | . | i
COc1ccc(OC)c(C2c3c(oc4ccccc4c3=O)C(=O)N2CCCN(C)C)c1 (centres undefined) | >57 | i
COC(=O)CCC(=O)N1CCc2cc(S(=O)(=O)N3CCN(c4ccccc4Cl)CC3)ccc21 | >57 | i
O=C(O)Cn1c(SCCOc2ccccc2F)nc2ccccc21 | >57 | i
COc1ccc(NC(=O)CN2CCN(c3ccccc3F)CC2)cc1 | >57 | i
COc1ccc(CCNC(=O)NC(C(F)(F)F)C(F)(F)F)cc1OC | >57 | i
CO[C@H]1/C=C/O[C@@]2(C)Oc3c(C)c(O)c4c(O)c(c(/C=N/N5CCN(C)CC5)c(O)c4c3C2=O)NC(=O)/C(C)=C\C=C\[C@H](C)[C@H](O)[C@@H](C)[C@@H](O)[C@@H](C)[C@H](OC(C)=O)[C@@H]1C | . | i
CCCCNC(=O)C1CCCN1C(=O)Nc1cccc(OC)c1 (centres undefined) | >57 | i
CN(C)c1ccc2c(O)cc(=O)n(C)c2c1 | . | i
COc1ccc(S(=O)(=O)N2CCN(c3ccc4nnc(-c5ccc(F)cc5)n4n3)CC2)cc1 | . | i
CC(C)NC(=O)c1cc(C(=O)c2cc(Cl)ccc2O)coc1=N | >57 | i
Cn1nc(CC(=O)N2CCN(c3ccccc3)CC2)c2ccccc2c1=O | >57 | i
Cc1sc(NC(=O)CSc2nc(N)n(CC(=O)c3ccccc3)n2)c(C#N)c1C | >11.4 | i
Cc1cc(NC(=O)CCC(=O)N(CC(=O)NC2CCCC2)Cc2ccccc2Cl)no1 | >57 | i
O=C(Nc1cccc(C(F)(F)F)c1)c1cc(S(=O)(=O)N2CCCCC2)ccc1N1CCOCC1 | >57 | i
CC1CN(c2nc3c(c(=O)n(Cc4ccc(Cl)cc4)c(=O)n3C)n2C)CC(C)O1 (centres undefined) | >57 | i
COC(=O)C1=C(C)Nc2nnnn2C1c1cc(OC)ccc1OC (centres undefined) | . | i
Cc1ccc(C(=O)NCCCNCCCN(C)C)cn1 | >57 | i

# Additional entries:
compound | Bst PK mod | TsaE inh
CCOC(=O)C1CCN(S(=O)(=O)c2ccc(-n3cnnn3)c(C)c2)CC1 | >57 | i
Cc1c(C)c2cc(Cl)c(O)c(CN3CCN(C)CC3)c2oc1=O | >25.6 | .
O=C(Nc1ccc(F)cc1)C1CCCN(S(=O)(=O)c2cccc3cccnc23)C1 (centres undefined) | . | i
CC(C)CN1CC[C@@]2(CCCN(C(=O)c3cc(C(F)(F)F)cc(C(F)(F)F)c3)C2)C1 | . | i

# 3 entries from above in a different format:
# Each structure is followed by: Bst PK mod	TsaE inh
CCOC(=O)C1CCN(S(=O)(=O)c2ccc(-n3cnnn3)c(C)c2)CC1
    >57	i
Cc1c(C)c2cc(Cl)c(O)c(CN3CCN(C)CC3)c2oc1=O
    >25.6	.
O=C(Nc1ccc(F)cc1)C1CCCN(S(=O)(=O)c2cccc3cccnc23)C1 (centres undefined)
    .	i
